GLA inh pH 4.5 = qHTS Assay for Inhibitors of Human alpha-Galactosidase at pH 4.5; Alpha-galactosidase A (Homo sapiens), P06280; 230,000 tested, under 10 active; purified enzyme, 4-MU-alpha-Gal fluorescence, pH 4.5; activity change, negative = inhibition, % at 105 µM; inconclusive = small, poorly fitted or top-dose-only inhibition, or a rising curve; inactive = flat fitted curve, though single readings scatter; no compound was filed as active;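 also: 0% = full activity with enzyme and -100% = basal without enzyme; dose as in the result columns while the protocol names 77 µM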
miR-21 reporter = qHTS Assay for Modulators of miRNAs and/orActivators of miR-21; HeLa miR-21 FLuc reporter, luciferase, 48 h; 340,000 tested, under 10 active; AID 2288, 2010; Potency, µM (titrated, usually from 38.3 µM), without a hit: at the highest dose reporter change, positive = more light; active = well fitted rising curve with a large enough effect; inconclusive = small, poorly fitted or top-dose-only effect; inactive = no such curve, though single readings can be large or run the other way;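 also: % of control where 0% means no effect; miR-21 action dims this reporter so a rising signal means less miR-21 action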
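Using DMEM plus 10% FBS, HeLa miR-21-FLuc cells are incubated with test compounds (final up to about 40uM) for 48 hours; firefly luciferase signal is then imaged following reagent-mediated lysis.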
Rango dissoc inh = qHTS Assay for Inhibitors of RanGTP induced Rango (Ran-regulated importin-beta cargo) - Importin beta complex dissociation; Snurportin-1 (Homo sapiens) + GTP-binding nuclear protein Ran (Homo sapiens) + Importin …; Biochemical FRET Rango-importin beta, RanGTP-induced dissociation; Potency, µM (highest dose often 46.1 µM), without a hit: at the top dose activity change, negative = inhibition; 340,000 tested, 0.071% active; AID 540253, 2011; active means falling FRET ratio curve, often poorly fitted, with flat reads before Ran was added; inconclusive means other falling curves, or compound fluorescence or quenching; inactive means flat or rising ratio curve;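 also: potency is read from the fitted curve at half-maximal effect; % of control where 0% means no effect; nearly all actives have a fitted effect of over 45% in size; -100% = wells without RanGTP and RCC1; the record marks most hits as doubtful in a second field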
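Rango/importin beta premix (0.1/0.25 uM final), PBS + 1 mM DTT + 0.02% Tween-20 + 0.1% BSA; cpd 5 min RT; FRET pre-read; + RanGTP-RCC1 (0.6 uM Ran, 2 mM GTP, 0.2 uM RCC1); 45 min RT; FRET post-read, ex 430, em 486/530 nm.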
Rango-impB inh = qHTS Assay for Inhibitors of Rango (Ran-regulated importin-beta cargo) - Importin beta complex formation | AID 540263, 2011 | Rango CFP/YFP FRET sensor + importin beta, 45 min | Potency, µM (top dose mostly 92.2 µM), for inactives: at the top dose inhibition of complex formation | Importin subunit beta-1 (Homo sapiens), Q14974 | 340,000 tested, 0.031% active; active = rising FRET ratio curve, often small or poorly fitted; inconclusive = mostly compound fluorescence or quenching in the first reads; inactive = flat curves in all reads;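 also: potency is read from the fitted curve at half-maximal effect; 0% = DMSO wells and 100% = buffer wells lacking importin beta; nearly all actives have a fitted effect of over 15% in size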
Target sequence (Q14974 whole entry, looked up): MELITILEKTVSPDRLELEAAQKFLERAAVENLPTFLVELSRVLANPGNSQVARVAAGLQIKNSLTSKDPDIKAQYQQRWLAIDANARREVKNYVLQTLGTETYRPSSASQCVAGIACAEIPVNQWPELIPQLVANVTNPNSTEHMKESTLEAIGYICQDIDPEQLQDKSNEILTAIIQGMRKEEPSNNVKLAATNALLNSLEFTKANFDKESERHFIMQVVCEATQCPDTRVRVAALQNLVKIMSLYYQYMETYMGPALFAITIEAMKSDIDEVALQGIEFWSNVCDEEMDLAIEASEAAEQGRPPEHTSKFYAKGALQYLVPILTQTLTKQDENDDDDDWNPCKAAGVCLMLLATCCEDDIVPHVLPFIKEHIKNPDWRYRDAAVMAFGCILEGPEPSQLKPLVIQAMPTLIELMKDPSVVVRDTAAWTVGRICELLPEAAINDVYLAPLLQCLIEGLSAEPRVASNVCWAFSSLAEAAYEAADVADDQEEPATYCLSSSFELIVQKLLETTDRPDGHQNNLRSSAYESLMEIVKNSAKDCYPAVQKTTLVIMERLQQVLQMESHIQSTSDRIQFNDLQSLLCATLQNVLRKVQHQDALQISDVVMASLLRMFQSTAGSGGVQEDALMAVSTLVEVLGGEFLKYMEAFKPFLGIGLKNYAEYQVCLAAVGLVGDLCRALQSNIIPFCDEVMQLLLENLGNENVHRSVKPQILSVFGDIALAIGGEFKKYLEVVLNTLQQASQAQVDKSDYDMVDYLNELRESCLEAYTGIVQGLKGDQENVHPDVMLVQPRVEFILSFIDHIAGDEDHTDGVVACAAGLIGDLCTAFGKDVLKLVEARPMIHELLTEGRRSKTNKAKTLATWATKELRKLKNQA
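FRET biosensor (snurportin 1 IBB flanked by EYFP and cerulean), 50 nM, with compound 5 min, then 0.125 microM importin beta in PBS, 1 mM DTT, 0.02% Tween-20, 0.1% BSA. CFP/YFP ratio read after 45 min at room temperature; pre-read flags interference.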
Numbers without * were called inactive; ? = inconclusive; . = no result given; & = joins results of further samples. This is a subset (hit frequency here may not be typical).

entry | SMILES | GLA inh pH 4.5 | miR-21 reporter | Rango dissoc inh | Rango-impB inh
1 | CN1C(=O)C(C)(C)c2cc(S(=O)(=O)N3CCC(C(=O)NCc4ccccc4Cl)CC3)ccc21 | . | 3% | -5% | 1.4%
2 | CCn1c(-c2ccco2)nc2ccccc21 | -8 | -29% | -18% | ?
3 | Cc1cccc(N2CCN(C(=O)CSc3ccsc3[N+](=O)[O-])CC2C)c1 (stereo not drawn) | -8 | 3% | 8% | 0.3%
4 | NCCCCC(=O)O | -1&-8 | . | 1% | 0.6%
5 | COc1cccc(C(=O)Cn2c(N3CCOCC3)nc3c2c(=O)n(C)c(=O)n3C)c1 | 0 | -4% | 1% | -0.4%
6 | COc1cccc(-c2cc(C(=O)NC3CCCC3)c3ccccc3n2)c1 | . | . | ? | ?
7 | CCOCCc1nnc(NC(=O)C2CCN(C(=O)c3ccco3)CC2)s1 | . | 0% | 22% | 0.1%
8 | COC(=O)Cn1nc(-c2ccc(C)c(S(=O)(=O)N(C)C)c2)c2ccccc2c1=O | -5 | -2% | -14% | -0.8%
9 | COc1ccc(S(=O)(=O)N2CCC3(CC2)CC(=O)c2ccccc2O3)cc1C | . | . | -8% | 0.3%
10 | COC(=O)CCC(=O)N1CCOCCOCCN(C(=O)CCC(=O)OC)CCOCCOCC1 | 3 | -6% | 3% | -1.0%
11 | CCC(C)(C)NC(=O)C(c1ccc(OC)cc1)N(C(=O)CCC(=O)Nc1cc(C)on1)c1cccc(F)c1 (stereo not drawn) | . | 5% | -4% | -0.1%
12 | CCNC(=O)N(C(=O)NCC)n1c(C)nnc1C | -1 | 0% | 5% | -3.8%
13 | CC(C)C(NC(=O)COc1ccccc1)C(=O)O (stereo not drawn) | 7 | -2% | -1% | 0.2%
14 | CCNC(=O)C1Cc2ccccc2CN1S(=O)(=O)c1ccc(F)cc1 (stereo not drawn) | 7 | 0% | -21% | 1.1%
15 | Cc1ccc(SCCSc2nc(C)cc(=O)[nH]2)cc1 | . | -37% | -4% | 5.0%
16 | N#Cc1cc2cc3c(cc2nc1N1CCCCC1)OCCO3 | 4 | -24% | ? | ?
17 | c1ccc(N2CCN(c3ccccc3)C2c2cccnc2)cc1 | -2 | -20% | 9% | -3.8%
18 | COc1ccc2c(c1)OC/C(=C/c1cccs1)C2=O | -11 | -72% | -8% | -3.7%
19 | CN(C)Cc1c(C(=O)N/N=C/C=C/c2ccccc2)nnn1-c1nonc1N | . | 0% | 22% | -2.2%
20 | CC(C(=O)OCC(=O)N(C)C1(C#N)CCCCC1)N1C(=O)c2ccccc2C1=O (stereo not drawn) | . | . | -7% | -0.5%

One compound at a time, from the list above. Values in the order: GLA inh pH 4.5	miR-21 reporter	Rango dissoc inh	Rango-impB inh
COC(=O)Cn1nc(-c2ccc(C)c(S(=O)(=O)N(C)C)c2)c2ccccc2c1=O across the screens: -5	-2%	-14%	-0.8%
CN(C)Cc1c(C(=O)N/N=C/C=C/c2ccccc2)nnn1-c1nonc1N across the screens: .	0%	22%	-2.2%
Cc1cccc(N2CCN(C(=O)CSc3ccsc3[N+](=O)[O-])CC2C)c1 (stereo not drawn) across the screens: -8	3%	8%	0.3%
CCOCCc1nnc(NC(=O)C2CCN(C(=O)c3ccco3)CC2)s1 across the screens: .	0%	22%	0.1%
Cc1ccc(SCCSc2nc(C)cc(=O)[nH]2)cc1 across the screens: .	-37%	-4%	5.0%

Shown field by field: 3 of the compounds above.
5) COc1cccc(C(=O)Cn2c(N3CCOCC3)nc3c2c(=O)n(C)c(=O)n3C)c1
  GLA inh pH 4.5: 0	miR-21 reporter: -4%	Rango dissoc inh: 1%	Rango-impB inh: -0.4%
17) c1ccc(N2CCN(c3ccccc3)C2c2cccnc2)cc1
  GLA inh pH 4.5: -2	miR-21 reporter: -20%	Rango dissoc inh: 9%	Rango-impB inh: -3.8%
4) NCCCCC(=O)O
  GLA inh pH 4.5: -1&-8	miR-21 reporter: .	Rango dissoc inh: 1%	Rango-impB inh: 0.6%

More compounds follow.
entry | SMILES | GLA inh pH 4.5 | miR-21 reporter | Rango dissoc inh | Rango-impB inh
21 | Cc1ccc(C(=O)Nc2ccc3c(c2)nc2n3CCSC2)cc1 | -8 | -24% | 3% | 3.2%
22 | O=C(CSc1ccc2c(c1)OCCO2)Nc1ncc(Cl)cc1Cl | 6 | 6% | -1% | 3.1%
23 | COc1cccc(CNC(=O)CCCn2ncn3c(cc4occc43)c2=O)c1 | . | -3%&-4% | 7% | 6.0%
24 | COC(=O)c1ccccc1Oc1ccc(NC(=O)C(C)(C)CCl)cc1 | 0 | 3% | 3% | -3.7%
25 | NNC(=O)CN1C(c2ccccc2Br)=Nc2ccc(Br)cc2C1c1ccccc1 (stereo not drawn) | 3 | 5% | 3% | -1.4%
26 | CSc1nc(-c2ccc(Cl)cc2)nn1C(=O)c1ccco1 | -9 | -38% | -19% | -7.2%
27 | Cc1cc(C)n(-c2ccc(C)c(Cl)c2)n1 | -6 | -1% | 11% | -1.6%
28 | c1ccc(-c2nc(NCc3cccnc3)c3oc4ccccc4c3n2)cc1 | -7 | 2% | 22% | 0.3%
29 | COc1ccc(-c2oc3ccc(-c4ccc(OC)nc4)cc3c2-c2ccc(OC)cc2)cc1 | . | . | 1% | -1.7%
30 | CC(C)C(NC(=O)OCc1ccccc1)C(=O)OCC(=O)NCc1ccco1 (stereo not drawn) | -2 | 1% | 0% | ?
31 | Clc1ccc2c(NCc3ccccn3)ncnc2c1 | -6 | -2% | -7% | -1.9%
32 | Oc1ccc(/C=N/Nc2ncc(Cl)cc2Cl)cc1 | . | -46% | 21% | -0.7%
33 | O=C(COC(=O)Cc1n[nH]c(=O)c2ccccc12)Nc1cccc(C(F)(F)F)c1 | -1 | 0% | 21% | 1.1%
34 | COc1cc(-c2nnc(SCC3(c4ccccc4)OCCO3)o2)cc(OC)c1OC | -11 | 12% | 1% | -0.3%
35 | O=C(c1ccc(F)cc1)N1CCN(C(=O)c2ccc([N+](=O)[O-])cc2)CC1 | 2 | -1% | 2% | -3.0%
36 | N=C1C(c2nc3ccccc3[nH]2)=C(O)CN1c1ccc(CC(=O)O)cc1 | -3 | -2% | -28% | ?
37 | CCn1c(SCC(=O)N2c3ccccc3CC2C)nnc1-c1ccco1 (stereo not drawn) | . | . | -4% | 0.1%
38 | CCOC(=O)C1CCCN(C(=O)c2ccc3nc(-c4ccccc4)c(-c4ccccc4)nc3c2)C1 (stereo not drawn) | . | 14% | -12% | 0.4%
39 | Nc1ccc(CSc2ccc(Cl)cc2)cc1 | -10 | -9% | -4% | -0.4%
40 | COc1ccc(OC)c(C(O)c2nc3ccccc3n2C)c1 (stereo not drawn) | . | 0% | 1% | -0.6%

Rewritten screen by screen: part of the list above.
31. Clc1ccc2c(NCc3ccccn3)ncnc2c1
28. c1ccc(-c2nc(NCc3cccnc3)c3oc4ccccc4c3n2)cc1
27. Cc1cc(C)n(-c2ccc(C)c(Cl)c2)n1
screen / no.	31	28	27
GLA inh pH 4.5	-6	-7	-6
miR-21 reporter	-2%	2%	-1%
Rango dissoc inh	-7%	22%	11%
Rango-impB inh	-1.9%	0.3%	-1.6%

Next entries:
entry | SMILES | GLA inh pH 4.5 | miR-21 reporter | Rango dissoc inh | Rango-impB inh
41 | CC[n+]1c(/C=C/Nc2ccccc2)sc2ccccc21 | -8 | 7% | -4% | 0.8%
42 | FC(F)(F)c1cccc(-c2nc(-c3ccncc3)no2)c1 | . | -8% | -8% | -2.1%
43 | O=S1(=O)CCC(n2ncc3c2/C(=C/c2ccccc2)CC3)C1 (stereo not drawn) | 6 | -16% | -3% | -0.7%
44 | NNC(=O)CSc1nnnn1-c1ccccc1 | -2 | -13% | -5% | -0.3%
45 | CN(C(=O)c1ccc(Cl)c([N+](=O)[O-])c1)C1(C)CCS(=O)(=O)C1 (stereo not drawn) | . | . | 10% | -1.1%
46 | CC(C)C[C@H](NC(=O)Nc1ccc(S(N)(=O)=O)cc1)C(=O)O | 2 | -5% | -2% | 2.1%
47 | COc1ccc(S(=O)(=O)N2CCCC(C(=O)NCC3CCCO3)C2)cc1C (stereo not drawn) | . | -1% | -11% | -2.4%
48 | O=C1CC(NS(=O)(=O)c2cccnc2)CN1c1ccc(F)cc1 (stereo not drawn) | . | . | -7% | 0.5%
49 | O=C(CCC(=O)OCC(=O)c1ccc(Br)cc1)Nc1ccc(Br)c2cccnc12 | -5 | -2% | -1% | ?
50 | COC(=O)C1=C(N)Oc2cc(C)n(Cc3ccco3)c(=O)c2C1c1cccc(Cl)c1 (stereo not drawn) | -7 | 1% | -8% | -0.3%
51 | CN(C)/C=C1\N=C(c2ccc(Cl)cc2Cl)OC1=O | 0 | -39% | -6% | 1.1%
52 | CC(CCc1ccccc1)NC(=O)CCCn1ncn2c(cc3occc32)c1=O (stereo not drawn) | . | 0% | 15% | 0.9%
53 | COC(=O)C=C1CCC2C3CCC4=CC(=O)CCC4(C)C3C(=O)CC12C (stereo not drawn) | . | . | 3% | 1.6%
54 | CCN(CC)C(=O)[C@H]1C[C@H](CC(=O)NC/C=C(\C)CCC=C(C)C)C(=O)N2CCc3c([nH]c4cc(-c5ccco5)ccc34)[C@]12C | . | . | -16% | 3.7%
55 | Nc1nc(-c2ccc([N+](=O)[O-])cc2)cc(=O)[nH]1 | . | . | 10% | 2.0%
56 | Cc1oc(C(=O)O)cc1COc1ccc2c3c(c(=O)oc2c1C)CCCC3 | 3 | -2% | . | .
57 | Cc1csc2c(SCC(=O)NNC(=O)C(Cl)Cl)ncnc12 | -7 | -17% | -12% | 6.9%
58 | O=C(COc1ccccc1Cl)NCCCNC(=O)c1ccco1 | . | -3% | 0% | 0.6%
59 | CCOC(=O)CC(=O)CSc1nc2c(C)c(C)ccc2cc1C | 4 | -3% | -1% | -2.7%
60 | CSc1cccc(N2CC(C(=O)N(CC(C)C)c3c(N)n(Cc4ccccc4)c(=O)[nH]c3=O)CC2=O)c1 (stereo not drawn) | . | . | 0% | -6.5%

Single entries from the list:
Reading of compound 49 under GLA inh pH 4.5: -5
Reading of compound 48 under Rango-impB inh: 0.5%
Reading of compound 53 under Rango dissoc inh: 3%
Reading of compound 52 under Rango dissoc inh: 15%

Next section.
entry | SMILES | GLA inh pH 4.5 | miR-21 reporter | Rango dissoc inh | Rango-impB inh
61 | CC(C)N(Cc1nc(-c2ccc(Cl)cc2)no1)C(=O)CCCN1C(=O)c2ccccc2C1=O | -2 | -2% | -15% | 0.4%
62 | Cc1ccc(CNC(=O)CCCn2c(=O)c3ccccc3n(CC(=O)NC3CCCC3)c2=O)cc1 | 2 | -2% | 4% | -4.1%
63 | COc1cc(NC(=O)c2ccc(Cl)cc2)c(Cl)cc1NC(=O)c1cccnc1 | . | -2% | 24% | 8.2%
64 | CCOC(=O)c1[nH]c2ccc(OC)cc2c1NC(=S)N1CCN(c2ccc(F)cc2)CC1 | 9 | -7% | -11% | -0.2%
65 | COc1ccc(Oc2c(OC)cc([N+](=O)[O-])c3ncccc23)cc1 | . | . | 0% | -1.9%
66 | COC(=O)c1c(C(=O)OC)c(-c2ccc(F)cc2)n2c1CS(=O)(=O)C2 | . | 0% | 36% | 5.2%
67 | CC(C)C(OC(=O)c1nsc(Cl)c1Cl)C(=O)NC1CCCCC1 (stereo not drawn) | . | 1% | 3% | -0.3%
68 | O=C(c1ccccc1)c1ccc2cc(O)ccc2c1 | . | -30% | -6% | 0.1%
69 | COc1ccc(NC(=O)Nc2cnccn2)cc1 | -8 | -36% | -11% | -2.0%
70 | O=C1CSC(c2cn(-c3ccccc3)nc2-c2ccc3c(c2)OCCO3)N1CCN1CCOCC1 (stereo not drawn) | -7 | -13% | 0% | 1.0%
71 | COc1ccc(N2CCN(C(=O)c3cn(Cc4ccccc4)nc3-c3cccnc3)CC2)cc1 | . | . | 38% | 6.8%
72 | Cc1nc2ccccn2c1C(=O)NCc1cccnc1 | -9 | -6% | -9% | 4.0%

Screening results as filed in PubChem.
